# miR-21 FLuc – qHTS Assay for Modulators of miRNAs and/orActivators of miR-21; HeLa miR-21 FLuc reporter, luciferase, 48 h; Potency, µM (doses to about 38.3 µM), without a hit: at the highest dose reporter change, positive = more light; 340,000 tested, under 10 active; AID 2288, 2010; active = well fitted rising curve with a large enough effect; inconclusive = small, poorly fitted or top-dose-only effect; inactive = no such curve, though single readings can be large or run the other way;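 further: % of control where 0% means no effect; miR-21 action dims this reporter so a rising signal means less miR-21 action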
#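 Using DMEM plus 10% FBS, HeLa miR-21-FLuc cells are incubated with test compounds (final up to about 40uM) for 48 hours; firefly luciferase signal is then imaged following reagent-mediated lysis.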
# Rango release inh – qHTS Assay for Inhibitors of RanGTP induced Rango (Ran-regulated importin-beta cargo) - Importin beta complex dissociation. Snurportin-1 (Homo sapiens) + GTP-binding nuclear protein Ran (Homo sapiens) + Importin …. Biochemical FRET Rango-importin beta, RanGTP-induced dissociation. Potency, µM (series often up to 46.1 µM), for the others: at the highest dose activity change, negative = inhibition. AID 540253, 2011. 0.071% of 340,000 active; active means falling FRET ratio curve, often poorly fitted, with flat reads before Ran was added; inconclusive means other falling curves, or compound fluorescence or quenching; inactive means flat or rising ratio curve;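 further: potency means the concentration at half of the fitted maximal effect; % of control where 0% means no effect; nearly all actives have a fitted effect of over 45% in size; -100% = wells without RanGTP and RCC1; the record marks most hits as doubtful in a second field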
#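 Compounds sat 5 min at room temperature with 0.1 uM Rango biosensor plus 0.25 uM importin beta, then FRET pre-read. RanGTP-RCC1 (0.6 uM Ran, 2mM GTP, 0.2 uM RCC1) added for 45 min, and the CFP/YFP post-read measured blocked complex dissociation.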
# GLA inh pH 4.5 – qHTS Assay for Inhibitors of Human alpha-Galactosidase at pH 4.5. 230,000 tested, under 10 active. AID 1467, 2008. purified enzyme, 4-MU-alpha-Gal fluorescence, pH 4.5. Alpha-galactosidase A (Homo sapiens), P06280. activity change, negative = inhibition, % at 105 µM; inconclusive = small, poorly fitted or top-dose-only inhibition, or a rising curve; inactive = flat fitted curve, though single readings scatter; no compound was filed as active;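 further: 0% = full activity with enzyme and -100% = basal without enzyme; dose as in the result columns while the protocol names 77 µM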
# Target sequence (P06280 whole entry, looked up): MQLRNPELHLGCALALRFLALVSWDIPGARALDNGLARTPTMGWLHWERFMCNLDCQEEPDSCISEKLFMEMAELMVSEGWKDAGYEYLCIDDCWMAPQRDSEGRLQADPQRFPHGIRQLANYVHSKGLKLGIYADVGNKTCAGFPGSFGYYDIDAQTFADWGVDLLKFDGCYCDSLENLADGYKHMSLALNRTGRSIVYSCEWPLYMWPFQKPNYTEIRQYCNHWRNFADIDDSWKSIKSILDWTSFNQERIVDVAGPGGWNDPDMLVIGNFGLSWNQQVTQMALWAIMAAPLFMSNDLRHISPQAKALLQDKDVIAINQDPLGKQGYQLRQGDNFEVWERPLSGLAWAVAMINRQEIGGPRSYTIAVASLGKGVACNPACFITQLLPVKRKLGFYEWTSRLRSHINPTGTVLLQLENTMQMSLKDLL
# Rango-impB inh – qHTS Assay for Inhibitors of Rango (Ran-regulated importin-beta cargo) - Importin beta complex formation. Rango CFP/YFP FRET sensor + importin beta, 45 min. Potency, µM (titrated, usually from 92.2 µM), for inactives: top-dose inhibition of complex formation. Importin subunit beta-1 (Homo sapiens), Q14974. 0.031% of 340,000 active; active = rising FRET ratio curve, often small or poorly fitted; inconclusive = mostly compound fluorescence or quenching in the first reads; inactive = flat curves in all reads;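 further: potency means the concentration at half of the fitted maximal effect; 0% = DMSO wells and 100% = buffer wells lacking importin beta; nearly all actives have a fitted effect of over 15% in size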
#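 FRET biosensor (snurportin 1 IBB flanked by EYFP and cerulean), 50 nM, with compound 5 min, then 0.125 microM importin beta in PBS, 1 mM DTT, 0.02% Tween-20, 0.1% BSA. CFP/YFP ratio read after 45 min at room temperature; pre-read flags interference.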
# Numbers without * were called inactive; ? = inconclusive; . = no result given; [ ] = dose if it differs, or a comment. A portion of the library, so the mix of outcomes need not match the whole.
# Below each compound – GLA inh pH 4.5 | Rango-impB inh | Rango release inh | miR-21 FLuc
> O=C(Cc1cn2ccsc2n1)Nc1ccccn1
  -7 | -2.6% | 12% | -4%
> CCCNC(=O)Cn1c2ccccc2c2nc(=O)cc(C)n21
  -1 | -0.4% | -10% | 1%
> COc1ccc(-c2[nH]ncc2CN2CCCN(c3ccccc3)CC2)c(F)c1
  -4 | -1.7% | -10% | -1%
> CCOC(=O)COc1ccccc1/C=C\[N+](=O)[O-]
  -3 | -1.7% | -12% | ?
> Cc1cc(NC(=O)C2CCCN(S(=O)(=O)c3cnc[nH]3)C2)ccc1Br (stereo unspecified)
  -4 | 1.3% | 15% | -1%
> COc1ccc(/C=N/Nc2nnc(C)n2N)cc1OC
  4[21.1 µM] | -1.3% | 0% | 11%
> COC(=O)C1=C(C(=O)OC)C2(OC1c1cccc(F)c1)C(=O)c1ccccc1C2=O (stereo unspecified)
  0 | ? | -28% | 5%
> N#CCC(=O)N/N=C/c1ccc(OCc2ccccc2)cc1
  14 | 2.1% | -6% | -33%
> COC(=O)c1c(O)c2ccccc2[nH]c1=O
  4 | 5.4% | 5% | -7%
> CC(C)Sc1nnc(-c2c[nH]c3ccccc23)n1C
  -2 | 1.4% | 13% | -44%
> COn1c(-n2nc(C)cc2C)nc2ccccc2c1=O
  -1 | -2.7% | -10% | -8%
> O=C(Cn1c(=O)n(-c2ccccc2)c(=O)c2sccc21)NCc1ccccc1
  -2 | 0.1% | 22% | 3%
> CC12CCC(=O)N1C(C(=O)Nc1cccc(S(=O)(=O)N3CCCCC3)c1)CS2 (stereo unspecified)
  . | -0.2% | -2% | .
> COc1ccc(C(=O)NNC(=O)CCCCC(=O)NNC(=O)c2ccc(OC)cc2)cc1
  -1 | 4.4% | 6% | -4%
> CC(C)(C)OC(=O)NCC1CCN(S(=O)(=O)Cc2ccccc2)CC1
  . | -2.0% | 1% | 2%

# (list continues)
# Below each compound – GLA inh pH 4.5 | Rango-impB inh | Rango release inh | miR-21 FLuc
> Cc1ccc(OCc2n[nH]c(=S)n2-c2ccccc2)cc1
  7 | -0.2% | -20% | 3%
> CC(C)C[C@H](NC(=O)C1CC(=O)N(c2ccc3c(c2)OCO3)C1)C(=O)NCc1ccco1 (stereo partly specified)
  . | -1.8% | 19% | -6%
> COc1ccc(CCN2C(=O)CC(NCCc3ccc(S(N)(=O)=O)cc3)C2=O)cc1OC (stereo unspecified)
  2 | ? | 1% | 10%
> COc1ccc(-c2c(-c3cc(OC)cc(OC)c3)n(C)c3ccc(-c4ccc(OC)nc4)cc23)cc1
  . | -0.9% | 9% | .
> O=C(N/N=C/c1cccnc1)c1ccc(CN2c3cccc4cccc(c34)S2(=O)=O)cc1
  -11 | 0.2% | -3% | 2%
> O=C1CN(C(=O)c2cccc(S(=O)(=O)N3CCCC3)c2)c2ccccc2N1
  -3 | 2.7% | 8% | 7%
> C=CCN1CC(c2nc3ccccc3n2CCOc2ccccc2)CC1=O (stereo unspecified)
  -13 | -2.1% | 6% | -11%
> Cc1cc(C)cc(NC(=O)CSc2nc3nc(C)cc(C)n3n2)c1
  . | 2.7% | 0% | .
> CCOC(=O)c1cc(C)n(-n2cnnc2)c1C
  5 | -5.4% | 3% | 1%
> COc1ccc(-c2coc3cc4oc(=O)c(CC(=O)O)c(C)c4cc23)cc1
  . | -2.9% | 10% | 2%
> COc1cc(/C=C2/SC(=S)N(Cc3ccccc3)C2=O)ccc1O
  . | ? | ? | -13%
> O=C(NCCc1nc(-c2ccccc2)cs1)c1ccc(Br)cc1
  0 | ? | -9% | -6%
> Cc1ccsc1C(=O)Nc1nnc(-c2ccco2)o1
  -6 | -0.2% | 2% | 4%
> O=C(NC1CCCCC1)C(c1ccccc1)N(Cc1cccnc1)C(=O)c1csnn1 (stereo unspecified)
  . | -0.6% | -9% | -1%
> COc1ccc2[nH]c(=O)c(CN(C(=O)NC3CCCCC3)C3CCCCC3)cc2c1
  -15 | 5.8% | 1% | -4%

# Overlap with the part before: 6 compounds, followed by the next part.
# Below each compound – GLA inh pH 4.5 | Rango-impB inh | Rango release inh | miR-21 FLuc
> COc1ccc(-c2coc3cc4oc(=O)c(CC(=O)O)c(C)c4cc23)cc1
  . | -2.9% | 10% | 2%
> COc1cc(/C=C2/SC(=S)N(Cc3ccccc3)C2=O)ccc1O
  . | ? | ? | -13%
> O=C(NCCc1nc(-c2ccccc2)cs1)c1ccc(Br)cc1
  0 | ? | -9% | -6%
> Cc1ccsc1C(=O)Nc1nnc(-c2ccco2)o1
  -6 | -0.2% | 2% | 4%
> O=C(NC1CCCCC1)C(c1ccccc1)N(Cc1cccnc1)C(=O)c1csnn1 (stereo unspecified)
  . | -0.6% | -9% | -1%
> COc1ccc2[nH]c(=O)c(CN(C(=O)NC3CCCCC3)C3CCCCC3)cc2c1
  -15 | 5.8% | 1% | -4%
> COc1ccc([N+](=O)[O-])cc1NC(=O)c1ccc(C)o1
  -6 | -2.5% | 0% | -1%
> CC(=O)Nc1ccc(NC(=O)c2ccc(NS(=O)(=O)c3cccc4cccnc34)cc2)cc1
  . | 2.9% | -13% | 0%
> c1ccc(CCc2cc3ccccc3[nH]2)cc1
  . | -2.0% | -5% | .
> Cc1ccc([N+](=O)[O-])cc1NC(=O)c1ccc2c(c1)OCO2
  11 | -2.8% | -11% | -11%
> Cc1ccc(NC(=O)CS(=O)CC(=O)N(CC(=O)NC2CCCC2)c2cccc(C)c2C)cc1 (stereo unspecified)
  0 | 0.8% | -9% | -7%
> CCOC(=O)N1CCN(C(=O)c2ccc(OCC)c(OCC)c2)CC1
  -6 | -3.4% | -15% | -7%
> O=S1(=O)CCN(Cc2ccc(Cl)c(Cl)c2)CC1
  1 | 4.1% | 18% | -2%
> Cc1ccc(S(=O)(=O)Nc2ccc(S(=O)(=O)NCC3CCCO3)cc2)cc1 (stereo unspecified)
  . | 0.1% | 6% | -1%
> COC(=O)c1ccc(CNC(=O)c2ccc(NS(=O)(=O)c3ccc4[nH]c(=O)[nH]c4c3)cc2)cc1
  . | -0.5% | -7% | .
> Nc1ccc(C(=O)N/N=C/c2cccc(Oc3ccccc3)c2)cc1
  . | 0.5% | -4% | -23%
> Cc1cccc(C)c1OCC(=O)NNC(=O)c1ccoc1C
  -10 | -2.8% | -10% | -7%
> O=C1C2C3C=CC(C3=C3CCCCC3)C2C(=O)N1Cc1ccccc1 (stereo unspecified)
  -3 | 1.8% | 1% | -3%
> CCOC(=O)C(/C=C(\C#N)C(=O)OCC)=C(/N)N1CCN(c2ccc(Cl)cc2)CC1
  -10 | -0.7% | -4% | -6%
> Cc1ccc(CC(NC(=O)c2ccccc2)C(=O)NC(Cc2ccccc2)C(=O)O)cc1 (stereo unspecified)
  3 | 4.3% | 1% | 3%
> COc1ccc(CN2CC[C@@H](N3CCOCC3)[C@H](O)C2)cc1F
  . | -1.2% | -16% | -3%

# Carrying on.
# Below each compound – GLA inh pH 4.5 | Rango-impB inh | Rango release inh | miR-21 FLuc
> COc1ccc([C@H]2CC(=O)C=C(c3ccc(C)c4ccccc34)C2)cc1
  . | 0.2% | 2% | .
> O=C1[C@H](Cc2ccccc2)NCC=CC[C@@H](c2ccc(Cl)cc2)N1Cc1ccccc1
  . | -0.1% | 29% | .
> CCCn1c(=O)n(C)c(=O)c2c(SCC(=O)Nc3cc(C)on3)nc(C(C)(C)C)nc21
  . | -0.2% | -1% | .
> COc1cc(C(=O)ON=C2C=C(C)C(=O)C(C)=C2)cc(OC)c1OC
  -10 | 0.0% | 30% | -6%
> CC1CCCN(C(=O)CCCn2c(=S)[nH]c3ccccc3c2=O)C1 (stereo unspecified)
  2 | -3.5% | -1% | -1%
> O=C(C[n+]1cc(Br)cc(Br)c1)c1cccc([N+](=O)[O-])c1
  -1 | -0.6% | 0% | -4%
> COc1ccc(NC(=S)NCc2cccs2)cc1
  6 | -2.5% | -8% | -22%
> OCCNc1nc(-c2ccccc2)c2cc(Br)ccc2n1
  . | ? | ? | -3%
> Cc1ccc(S(=O)(=O)N2CCOCCOCCOCCOCCOCC2)cc1
  . | -1.3% | 10% | -1%
> COc1ccc(NC(=O)CN(C)C(=O)c2ccc(COc3ccccc3)o2)cc1
  . | -1.0% | -11% | .
> Cc1cc(C(=O)N2CCCC2)n[nH]1
  . | 0.3% | ? | 0%
> COc1cc(OC)c(C(=O)NNC(=O)c2ccccc2-n2cccc2)cc1OC
  . | -0.2% | 6% | .
> NC(=S)N=Nc1ccc(O)cc1
  . | 2.9% | -2% | .
> CC(=O)O[C@@H](C[C@@H](C)C1=C2C[C@H](O)C3[C@@]4(C)CCC(=O)C(C)(C)C4CC[C@]3(C)[C@@]2(C)CC1)[C@H]1OC1(C)C (stereo partly specified)
  . | -2.7% | -1% | .
> Cc1cccc(C(=O)Nc2cccc(C(=O)Nc3cc(C)ccn3)c2)c1
  . | 2.6% | -8% | -7%

# Carrying on.
# Below each compound – GLA inh pH 4.5 | Rango-impB inh | Rango release inh | miR-21 FLuc
> CCOC(=O)c1ccc(NC(=O)CSc2nnnn2CCCO)cc1
  -9 | -4.2% | 15% | -9%
> Cc1oc(-c2ccccc2F)nc1CN1CCC(C(=O)NC2CC2)CC1
  -1 | -2.2% | -10% | -6%
> Cc1cccc2nc(-c3cccnc3)c(Nc3ccccc3)n12
  2 | -1.3% | -4% | 28%
> CCCOc1ccc(C(F)(F)F)cc1NC(=O)c1cc(C)on1
  . | -4.5% | -5% | .
> CCOC(=O)N1CCC(NC(=O)CCCC(=O)O)CC1
  9 | 2.1% | -3% | -2%
> Cc1noc(C)c1CN1C(=O)c2cccc([N+](=O)[O-])c2C1=O
  . | 0.8% | -11% | 6%
> COc1ccccc1NC(=O)N(C1CCCC1)C1CCN(C(C)=O)CC1
  3 | -2.6% | 6% | -1%
> Cc1cc(C)n(CC(=O)c2ccccc2)c(=O)c1C#N
  -10 | 0.0% | 1% | -7%
> Cc1ccc(NC(=O)Nc2nnc(-c3ccccc3F)s2)cc1
  5 | 3.6% | 1% | -26%
> CN(C)C(CNC(=O)c1ccc(C(F)(F)F)cc1)c1ccco1 (stereo unspecified)
  . | -3.6% | -6% | -19%
> CC(C)[C@H](N)c1nnc(SCc2ccc(Cl)cc2)o1
  1 | -6.4% | -3% | -11%
> CC(C)C[C@H](NC(=O)CCCn1nnc2ccccc2c1=O)C(=O)O
  -2 | 3.1% | 4% | -7%
> Cc1nc2sc(C(=O)Nc3ccccc3Cc3ccccc3)c(C)c2c(=O)[nH]1
  7 | -3.0% | -9% | 0%
> O=C(O)c1cccc(Nc2nc(-c3cc4ccccc4oc3=O)cs2)c1
  . | ? | ? | -50%
> COc1ccc(/C(C)=C2/SC(=S)N(CCC(=O)O)C2=O)cc1
  0 | 4.9% | 7% | -4%

# Remaining list, next part:
# Below each compound – GLA inh pH 4.5 | Rango-impB inh | Rango release inh | miR-21 FLuc
> O=C(c1ccc(Br)cc1)c1cc([N+](=O)[O-])ccc1N1CCCCC1
  4 | ? | 3% | 14%
> Cc1cccc(-c2nc(CN3CCCC(C(=O)NC4CCCCCC4)C3)c(C)o2)c1 (stereo unspecified)
  -14 | -3.9% | 10% | 16%
> O=C(NNC(=S)Nc1ccccc1C(F)(F)F)c1cccnc1
  -2 | 0.5% | 3% | -10%
> Cc1cc(SCC(=O)N2CCC(c3noc4ccc(F)cc34)CC2)nc2ccccc12
  -1 | -3.0% | 1% | -7%
> CN(C)c1nc(N(C)C)nc(N2CCCCC2)n1
  -1 | 1.6% | 16% | -4%
> CCCCC(=NCCO)C1=C(O)C(C(=O)OC)C(C)(C)CC1=O (stereo unspecified)
  4 | 4.1% | 7% | -1%
> Cc1ccc(C)c(NC(=O)C2C3C=CC(O3)C2C(=O)O)c1 (stereo unspecified)
  . | 2.2% | 4% | 0%
> Cc1nn(Cc2c(Cl)cccc2Cl)c(C)c1NC(=O)CCCn1nc(C)c([N+](=O)[O-])c1C
  2 | 0.6% | 1% | -7%

# Screens deposited in PubChem BioAssay by National Center for Advancing Translational Sciences (NCATS).
